VACV Venus inh: inhibitors of vaccinia virus (Venus reporter); Vaccinia virus Venus reporter expression, fluorescence; Potency, µM (series often up to 36.5 µM), without a hit: top-dose activity change, negative = inhibition, hits mostly inhibitors; hit rate 0.46% among 330,000; AID 720580; active means well fitted inhibition curve with a large enough effect; inconclusive means small, poorly fitted or top-dose-only effect; inactive means no such curve, though single readings can be large or run the other way; tested in A549 cells; further: nearly all actives have a fitted effect of over 30% in size; inactives centre near -10
VACV mCherry inh: vaccinia inhibition (mCherry reporter); hit rate 0.63% among 310,000; Potency, µM (series often up to 36.5 µM), for the others: top-dose activity change, negative = inhibition, actives largely listed as inhibitors; Vaccinia virus mCherry reporter infection, fluorescence; about a quarter of the inactives have no number; AID 720579; active = well fitted inhibition curve with a large enough effect; inconclusive = small, poorly fitted or top-dose-only effect; inactive = no such curve, though single readings can be large or run the other way; tested in A549 cells; further: nearly all actives have a fitted effect of over 35% in size; inactives centre near -10
Starred values were filed as active, the others as inactive; & = joins results of further samples; [ ] = remark or other dose. On the % scale 0 is the no-effect control and ±100 the full control effect; potency means the concentration at half of the fitted maximal effect.

C/C=C(/C)C(=O)Nc1cccc(C2=NOC3(C2)C[C@@H](C(N)=O)N(C(=O)[C@H]2CCC(=O)N2)C3)c1 (some centres undefined) was read as VACV Venus inh -12% and VACV mCherry inh inactive.
CC[C@H](C)[C@@H](C(=O)NCCCCCCCCCCC(=O)N1CCNCC1)n1cc(CCCCCN)nn1 was read as VACV Venus inh inconclusive and VACV mCherry inh inactive.
Screening Cc1cc(=O)oc2cc(OCC(=O)OC(C)C(=O)NC3CCCC3)ccc12 (centres undefined) returned VACV Venus inh -5% and VACV mCherry inh 0%.
Screening NC(=O)C1CCN(C(=O)CSc2nc(O)cc(=O)[nH]2)CC1 returned VACV Venus inh -2% and VACV mCherry inh inactive.
For COCCN1CCN(C(=O)c2cnn(-c3nccc(-c4ccco4)n3)c2C2CC2)CC1 the results were VACV Venus inh 4% and VACV mCherry inh 2%.
For COc1ccc(N(CC(=O)NC2CCCCC2)C(=O)c2ccc(C)s2)c(OC)c1 the results were VACV Venus inh -11% and VACV mCherry inh -9%.
CS(=O)(=O)N1CCC(C(=O)NCc2ccco2)CC1 was read as VACV Venus inh -15% and VACV mCherry inh -29%.
Cc1cccc(C2CC(=O)Oc3c2c(=O)n(C)c2ccccc32)c1 (centres undefined) was read as VACV Venus inh -28% and VACV mCherry inh inconclusive.
For COc1ccc(C(=O)Nc2nnc(S(=O)(=O)N(C)c3ccc(Cl)cc3)s2)cc1OC the results were VACV Venus inh -10% and VACV mCherry inh -11%.
For COc1ccc(C(=O)N[C@H](C(=O)Nc2nc3c(s2)CCCC3)C(C)C)cc1 the results were VACV Venus inh -19% and VACV mCherry inh inactive.
For O=C(c1cccc(Cl)c1)N1CCC(c2nc3c(nnn3Cc3ccc(F)cc3F)c(=O)[nH]2)CC1 the results were VACV Venus inh -26% and VACV mCherry inh -28%.
Screening O=C(Nc1ccc(S(=O)(=O)N2CCCCC2)cc1)C1CCCO1 (centres undefined) returned VACV Venus inh 16% and VACV mCherry inh -6%.
COc1ccc(C(=O)Nn2c(C)nnc2-n2nc(C)cc2C)cc1OC was read as VACV Venus inh -5% and VACV mCherry inh inactive.
Cc1cccc(/C=N/NC(=O)Cn2nnnc2N)n1 was read as VACV Venus inh -9% and VACV mCherry inh -9%.
O=C(NCc1cccs1)c1cnn2cccnc12 was read as VACV Venus inh -9% and VACV mCherry inh -3%.
Screening CCC(=O)Nc1ccc2c(c1)ncn2-c1ccc(OC)cc1 returned VACV Venus inh -7% and VACV mCherry inh -17%.
`O=C(Nc1nccs1)C1C2/C=C\CCCCC21` (centres undefined) gave VACV Venus inh -19%.
`O=C(NCCc1cccc(F)c1)[C@@H]1CSC2c3ccccc3C(=O)N21` (some centres undefined) gave VACV Venus inh -13% and VACV mCherry inh inactive.
For CCCc1nc2c(=O)n(C)c(=O)[nH]c2n1CCC the results were VACV Venus inh -17%.
For O=C(NCCNc1ccc([N+](=O)[O-])cc1)c1cccc(Br)c1 the results were VACV Venus inh -8% and VACV mCherry inh inactive.
Nc1sc2c(c1C(=O)c1ccccc1)CCCC2 was read as VACV Venus inh -6% and VACV mCherry inh -18%.
CCOC(=O)CSc1nc(C)c2cc(C)c(C)cc2n1 was read as VACV Venus inh 3% and VACV mCherry inh 7%.
`CCN(C(=O)Cn1cc(S(=O)(=O)Cc2ccccc2Cl)c2ccccc21)c1ccccc1` gave VACV Venus inh -3% and VACV mCherry inh -14%.
For CCOC(=O)c1ccc(N2C(=O)c3n[nH]c(-c4ccco4)c3C2c2cccc(O)c2)cc1 (centres undefined) the results were VACV Venus inh -13% and VACV mCherry inh -25%.

Entries shown so far containing an NH in an aromatic ring, in the order listed:
Screening NC(=O)C1CCN(C(=O)CSc2nc(O)cc(=O)[nH]2)CC1 returned VACV Venus inh -2% and VACV mCherry inh inactive.
For O=C(c1cccc(Cl)c1)N1CCC(c2nc3c(nnn3Cc3ccc(F)cc3F)c(=O)[nH]2)CC1 the results were VACV Venus inh -26% and VACV mCherry inh -28%.
For CCCc1nc2c(=O)n(C)c(=O)[nH]c2n1CCC the results were VACV Venus inh -17%.
For CCOC(=O)c1ccc(N2C(=O)c3n[nH]c(-c4ccco4)c3C2c2cccc(O)c2)cc1 (centres undefined) the results were VACV Venus inh -13% and VACV mCherry inh -25%.

Carrying on:
For C[C@@H]1CC[C@]2(O[C@H](CCO)C[C@@H](O)[C@@H]2O)O1 the results were VACV Venus inh -1% and VACV mCherry inh -6%.
Screening Cc1cc(C)cc(N(CC(=O)O)S(=O)(=O)c2c(C)[nH]c(=O)[nH]c2=O)c1 returned VACV Venus inh -4% and VACV mCherry inh inactive.
Screening OC1(c2cccc(C(F)(F)F)c2)CCN(Cc2nnnn2CCc2ccccc2)CC1 returned VACV Venus inh -12%.
Cc1nc(SC2CC(=O)N(c3ccccc3)C2=O)n[nH]1 (centres undefined) was read as VACV Venus inh 14% and VACV mCherry inh inactive.
O=C(NCCc1csc(-c2ccccc2)n1)c1c(F)cccc1Cl was read as VACV Venus inh -5% and VACV mCherry inh -10%.
`O=C(CN1CCN(c2cccc(Cl)n2)CC1)N1CC(O)CO1` (centres undefined) gave VACV Venus inh 0% and VACV mCherry inh -5%.
`COc1cccc(N2CCN(S(=O)(=O)c3ccc4c(c3)oc(=O)n4C)CC2)c1` gave VACV Venus inh -7% and VACV mCherry inh inactive.
For O=C(NNC(=O)C1C2C=CC(C2)C1C(=O)O)c1cc(Cl)ccc1O (centres undefined) the results were VACV Venus inh -11% and VACV mCherry inh -1%.
Cc1ccc2nc(SCC(=O)N/N=C/c3ccco3)cc(C)c2c1 was read as VACV Venus inh inconclusive and VACV mCherry inh inconclusive.
Screening CCC1([N+](=O)[O-])COC(C=Cc2ccccc2)OC1 (centres undefined) returned VACV Venus inh -2% and VACV mCherry inh -24%.
`O=S(=O)(NN1CCOCC1)c1ccc(Cl)s1` gave VACV Venus inh -11% and VACV mCherry inh -13%.
For COc1ccc(/C=N/NC(=O)c2ccc(OC)c(OC)c2)cc1COc1c(F)c(F)c(F)c(F)c1F the results were VACV Venus inh -10% and VACV mCherry inh -18%.
CS(=O)(=O)N(CC(=O)N1CCCCC1)C1CCCCC1 was read as VACV Venus inh -5% and VACV mCherry inh -9%.
Screening Cc1ccccc1OCCSc1nc2ccc(NC(=O)c3ccco3)cc2s1 returned VACV Venus inh -3% and VACV mCherry inh -24%.
COc1cc(NC(=O)CNC(=O)Cn2ccc3ccccc3c2=O)cc(OC)c1OC was read as VACV Venus inh 3%&-14% and VACV mCherry inh -2%&0%.
`CCOC(=O)C(CCOc1cccc(CC)c1)C(=O)OCC` gave VACV Venus inh -23%.
Screening COc1cc(NS(C)(=O)=O)ccc1Cc1c2ccccc2nc2ccccc12 returned VACV Venus inh inconclusive and VACV mCherry inh 1.3µM*.
Screening COc1cc(/C=C/C(=O)OCN2C(=O)c3ccccc3C2=O)ccc1OC(F)F returned VACV Venus inh -17% and VACV mCherry inh -17%.
`Nc1nc(N)c2cc(Sc3ccc(Cl)cc3)ccc2n1` gave VACV Venus inh 6.3µM* and VACV mCherry inh inconclusive.
For COc1cccc(O)c1CN1CCCC(C(=O)c2cccc(C(F)(F)F)c2)C1 (centres undefined) the results were VACV Venus inh -11% and VACV mCherry inh inactive.
`CC(C)(C)S(=O)(=O)/C(C#N)=N/Nc1ccc(Cl)cc1` gave VACV Venus inh inconclusive and VACV mCherry inh -14%.
For CC1CN(C(=S)SCC(=O)c2ccc([N+](=O)[O-])cc2)CC(C)O1 (centres undefined) the results were VACV Venus inh -7% and VACV mCherry inh inconclusive.
For Cc1cc(NC(=O)c2cccs2)n(-c2nc3ccccc3[nH]2)n1 the results were VACV Venus inh -27% and VACV mCherry inh inconclusive.
Cc1cc(C)c(NC(=O)CN)c(C)c1 was read as VACV Venus inh -1% and VACV mCherry inh inactive.
`CC1CCC2C(=O)N(c3ccc(S(=O)(=O)c4ccccc4)cc3)C(=O)C2C1` (centres undefined) gave VACV Venus inh -7% and VACV mCherry inh -17%.
`O=Cc1ccc(Oc2ncccn2)cc1` gave VACV Venus inh -6% and VACV mCherry inh inactive.
CCOc1ccc(NC(=O)NC(C)CC)cc1 (centres undefined) was read as VACV Venus inh -19% and VACV mCherry inh inactive.
`COc1ccc(NC(=O)CCC(=O)Nc2cc(OC)c(NC(=O)c3cccs3)cc2OC)cc1` gave VACV Venus inh -9% and VACV mCherry inh -30%.
For COc1ccc([C@H]2CN(Cc3ccccc3)C(=O)[C@@H]2CC(=O)Nc2ccccc2)cc1 the results were VACV Venus inh -9% and VACV mCherry inh inconclusive.
`C=CCn1c(SCC(=O)c2ccccc2)nnc1-c1cc2ccccc2o1` gave VACV Venus inh -28%.
For CC1CCN(C(=O)c2ccc(NS(=O)(=O)c3ccccc3)cc2)CC1 the results were VACV Venus inh -20% and VACV mCherry inh -16%.
Screening CCOC(=O)C1CCCN(CCC(=O)Nc2cccc(C)c2)C1 (centres undefined) returned VACV Venus inh -5%&5% and VACV mCherry inh -9%.
Screening COc1ccccc1C(=O)NCC(=O)NC1CCCc2ccccc21 (centres undefined) returned VACV Venus inh -11% and VACV mCherry inh -9%.
Screening Cc1nnc2c(NC3CCCC3)nc3ccccc3n12 returned VACV Venus inh -10% and VACV mCherry inh -14%.
Screening CCC12CN3CC(CC)(CN(C1)C3c1cccc(OC)c1O)C2=O (centres undefined) returned VACV Venus inh -8% and VACV mCherry inh -2%.
Cc1ccsc1/C=N/n1c(COc2ccccc2)n[nH]c1=S was read as VACV Venus inh -13% and VACV mCherry inh -12%.
CCOC(=O)c1c(N)sc2c1CCC1C(=O)N(C3CCCCC3)C(=O)C21 (centres undefined) was read as VACV Venus inh -15% and VACV mCherry inh -16%.
`Cc1cccc(NC(=S)NC(=O)/C=C/c2ccco2)n1` gave VACV Venus inh -29%.
CC(C)C(C(=O)O)N1C(=O)C2C3CCC(C3)C2C1=O (centres undefined) was read as VACV Venus inh -5% and VACV mCherry inh inactive.
`CC(C)(C)n1nc2c(c1NC(=O)Cc1cccc3ccccc13)CS(=O)(=O)C2` gave VACV Venus inh -10% and VACV mCherry inh -8%.
Screening COCP(=O)(c1ccccc1)c1ccccc1 returned VACV Venus inh 0% and VACV mCherry inh inactive.
`O=C(NCc1nc2ccccc2[nH]1)c1ccc(Cl)c(S(=O)(=O)N2CCCC2)c1` gave VACV Venus inh inconclusive and VACV mCherry inh -8%[1.46 µM].
Cc1ccc(NC(=O)CSc2nncn2C)c(C)c1 was read as VACV Venus inh 6% and VACV mCherry inh 13%.
For CCn1c(C)c(CCC(=O)O)c(=O)n2nc(-c3ccccc3OC)cc12 the results were VACV Venus inh -17% and VACV mCherry inh -18%.
For CCS(=O)(=O)c1ccc(N=Nc2ccc(O)c3ncccc23)c(OC)c1 the results were VACV Venus inh inconclusive and VACV mCherry inh 7.9µM*.
Screening COc1ccc(N2CCN(c3nc4c(C)cccn4c(=O)c3C=C(C#N)C#N)CC2)cc1 returned VACV Venus inh -10% and VACV mCherry inh -19%.
`CCOC(=O)c1ccc2c(c1)N(CC(=O)Nc1ccc(CC)cc1)C(=O)c1ccccc1S2` gave VACV Venus inh inconclusive and VACV mCherry inh inconclusive.
`O=C(NNC(=O)c1sccc1-n1cccc1)c1cccc(Cl)c1` gave VACV Venus inh -6% and VACV mCherry inh -3%.

Already shown: entries from further up.
`Cc1cccc(NC(=S)NC(=O)/C=C/c2ccco2)n1` gave VACV Venus inh -29%.
CC(C)C(C(=O)O)N1C(=O)C2C3CCC(C3)C2C1=O (centres undefined) was read as VACV Venus inh -5% and VACV mCherry inh inactive.

Continued:
For COc1ccc(NC(=O)C(=O)NCCc2csc(-c3ccc(Cl)cc3)n2)cc1OC the results were VACV Venus inh -4% and VACV mCherry inh -14%.
For CC(C)S(=O)(=O)c1oc(-c2cccs2)nc1S(=O)(=O)c1ccc(F)cc1 the results were VACV Venus inh -13%[7.34 µM] and VACV mCherry inh -18%[7.34 µM].
Cc1ccnc2ccc(Br)cc12 was read as VACV Venus inh -3% and VACV mCherry inh -10%.
Screening COc1ccccc1N(C(=O)c1ccco1)C(C(=O)NC1CCCC1)c1cccs1 (centres undefined) returned VACV Venus inh -12% and VACV mCherry inh -5%.
O=Cc1cc(CCC(=O)O)ccc1O was read as VACV Venus inh -5% and VACV mCherry inh inactive.
`CC(C)C[C@H]1CN=C(Nc2ccccc2)N1CCCCc1ccccc1` gave VACV Venus inh -16% and VACV mCherry inh -3%.
CC(/C=C/c1ccco1)=N/NC(=O)Cc1cccs1 was read as VACV Venus inh -2% and VACV mCherry inh -7%.
Cc1ccc(NC(=O)CN2CCCN(Cc3ccccc3Cl)S2(=O)=O)c(C)c1 was read as VACV Venus inh -11% and VACV mCherry inh -7%.
For Cc1ccc(SCC(=O)NC2CCS(=O)(=O)C2)cc1C (centres undefined) the results were VACV Venus inh -14% and VACV mCherry inh inactive.
Screening Cc1nc2cc(C(=O)O)ccc2n1-c1ccc(F)cc1F returned VACV Venus inh -1%.
COc1ccc(C(NC(=O)C2CCN(CCCOc3ccccc3)CC2)c2ccccn2)cc1 (centres undefined) was read as VACV Venus inh -6% and VACV mCherry inh -6%.
CCCOc1ccc(C(=O)NCC(c2ccc(OC)cc2)N2CCCCC2)cc1 (centres undefined) was read as VACV Venus inh -20% and VACV mCherry inh -18%.

Arranged by length of the SMILES (ascending): part of the list above
Screening Cc1nc2cc(C(=O)O)ccc2n1-c1ccc(F)cc1F returned VACV Venus inh -1%.
`CC(C)C[C@H]1CN=C(Nc2ccccc2)N1CCCCc1ccccc1` gave VACV Venus inh -16% and VACV mCherry inh -3%.
Cc1ccc(NC(=O)CN2CCCN(Cc3ccccc3Cl)S2(=O)=O)c(C)c1 was read as VACV Venus inh -11% and VACV mCherry inh -7%.
